UCH37 DUB inh – inhibitors of human UCH37 deubiquitinase, primary screen, biochemical, Ub-AMC cleavage, fluorescence. purified proteasome/UCH37. inhibition, % (no concentration beside the values). Ubiquitin carboxyl-terminal hydrolase isozyme L5 (Homo sapiens), Q9Y5K5. 330,000 compounds, 0.33% hits. AID 588478, 2011;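 active = mean of two replicates above 20%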;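 note: 0% = compound-free wells with enzyme and 100% = wells lacking proteasome; stock transfer was 100 nL into about 20 µL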
Target sequence (Q9Y5K5 whole entry, looked up): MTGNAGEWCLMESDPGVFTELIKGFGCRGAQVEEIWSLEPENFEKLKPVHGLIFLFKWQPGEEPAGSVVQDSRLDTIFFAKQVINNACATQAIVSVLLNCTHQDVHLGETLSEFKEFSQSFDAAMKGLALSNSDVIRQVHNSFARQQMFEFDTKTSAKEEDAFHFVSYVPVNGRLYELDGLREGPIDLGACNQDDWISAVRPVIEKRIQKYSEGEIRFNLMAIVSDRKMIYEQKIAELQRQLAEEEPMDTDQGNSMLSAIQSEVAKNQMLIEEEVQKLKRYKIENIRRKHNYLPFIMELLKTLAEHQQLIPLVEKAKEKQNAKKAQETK
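Signal – fluorescence, ex 355 nm, em 460 nm · System – Proteasome-bound UCH37 · Input – 0.15 nM proteasome as dispensed · Timing – 30 min preincubation with enzyme, 25 min cleavage at room temperature · Read-out basis – percent inhibition of cleavage signal versus uninhibited and no-proteasome wells · Medium – Tris-HCl pH 7.4 with ATP-MgCl2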
MLL AF4-AF9 inh – inhibitors of AF4 peptide binding to AF9, primary screen, biochemical, AlphaScreen, biotin-AF4 peptide, FLAG-AF9, single point | inhibition, % at 10 µM | 350,000 compounds, 0.47% hits | AID 651704, 2012;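 active = every replicate reaching a set inhibition limit, whatever the replicate mean, cut at about 25% in these data; inconclusive = mean inhibition reaches that limit but some replicates miss it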;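 note: 0% = plate neutral control median and 100% = total signal loss; the record names both 10 and 1 µM as test concentration; the first replicate is given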
Target sequence (P42568 whole entry, looked up): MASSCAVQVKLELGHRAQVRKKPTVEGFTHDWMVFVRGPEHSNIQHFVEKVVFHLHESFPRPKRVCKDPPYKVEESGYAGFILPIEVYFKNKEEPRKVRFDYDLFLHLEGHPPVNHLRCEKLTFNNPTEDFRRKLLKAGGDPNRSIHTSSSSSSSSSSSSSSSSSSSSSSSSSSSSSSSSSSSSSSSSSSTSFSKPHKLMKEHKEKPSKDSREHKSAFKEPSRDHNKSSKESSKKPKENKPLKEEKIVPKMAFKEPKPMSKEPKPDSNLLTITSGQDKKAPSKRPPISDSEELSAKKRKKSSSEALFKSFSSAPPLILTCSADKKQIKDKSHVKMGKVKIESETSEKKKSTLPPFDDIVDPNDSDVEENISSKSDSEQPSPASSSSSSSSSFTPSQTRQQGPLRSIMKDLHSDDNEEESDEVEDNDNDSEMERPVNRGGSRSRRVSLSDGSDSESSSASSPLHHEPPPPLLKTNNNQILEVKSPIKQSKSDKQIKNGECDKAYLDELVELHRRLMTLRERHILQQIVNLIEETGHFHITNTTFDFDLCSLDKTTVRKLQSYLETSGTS
Ecoli growth – E. coli growth inhibition, primary screen, OD600. OD600 absorbance (no concentration beside the values). Escherichia coli growth, 23 h; stronger effect = lower value. 330,000 compounds, 0.21% hits;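 active = OD600 absorbance below the run mean of sample wells minus 3.6 SD, in any replicate, cut at about 0.56 in these data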;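 note: stock transfer was 300 nL into about 60 µL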
FGF22 binding – binders of human FGF22 protein, primary screen, FGF22 synaptogenesis inhibitor project, biophysical, thermal shift, single point | 340,000 compounds, 1.5% hits | calls only at 9.99 µM | Fibroblast growth factor 22 (Homo sapiens), Q9HCT0 | AID 651658, 2012 | recombinant FGF22 thermal shift, SYPRO orange fluorescence; percent of sucrose octasulfate shift, DMSO zero;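 active = melting point raised past a set limit in the mean and every replicate; inconclusive = no clear call; three in four hits are not shown here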
Target sequence (Q9HCT0 whole entry, looked up): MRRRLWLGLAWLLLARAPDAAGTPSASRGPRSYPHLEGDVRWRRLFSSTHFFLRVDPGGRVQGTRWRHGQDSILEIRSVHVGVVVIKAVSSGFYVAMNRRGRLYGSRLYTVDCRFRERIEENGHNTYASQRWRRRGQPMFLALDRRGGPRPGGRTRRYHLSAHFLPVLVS
HNF4A DNA FP – change in binding of human HNF4A to DNA, primary screen, biochemical, fluorescence polarization, FITC-DNA. Hepatocyte nuclear factor 4-alpha (Homo sapiens), P41235. 1 h. activity change, % at 10 µM. 360,000 compounds, 0.3% hits. AID 1224865, 2016; in the data active = activity change above about 30%, passing the limit was not always enough;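 note: controls were the assay level and a saturating level of protein; the project sought stronger binding though the title names inhibitors; some compounds called inactive have numbers as strong as hits; positive values seem to mean higher polarization but the record does not say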
Vif TR-FRET – inhibitors of Vif binding to APOBEC3G peptide, primary screen, biochemical, TR-FRET, GST-Vif 1-94, biotin-A3G peptide, dose response retest (AID 1117319); inhibition, %; hits with a dose series show IC50 in µM; 260,000 compounds, 0.57% hits; Virion infectivity factor (Human immunodeficiency virus type 1 group M subtype B (isolate …; TR-FRET GST-Vif / biotin-A3G peptide binding; higher % means a stronger effect; test concentration not given here; strong numbers were not always called active;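 active = above the screen mean plus three standard deviations and confirmed in dose response; inconclusive = results disagree or hit not tested in dose response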;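 note: Vif residues 1-94 fused to GST binding biotinylated APOBEC3G peptide 110-148; 0% = full assay without inhibitor and 100% = GST in place of GST-Vif; retest series ran down from 100 µM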
RanGTP-Impb inh – inhibitors of RanGTP-importin-beta interaction, primary screen, biochemical, FRET, CFP-Ran, YFP-importin-beta, homogeneous | Ran GTPase (GTP-bound) - importin-beta complex | cell-free CFP-Ran/YFP-importin-beta FRET ratio | inhibition, % (test concentration not listed) | 300,000 compounds, 1.1% hits | AID 2216, 2009;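 active = most replicates above 15%; inconclusive = exactly half above 15%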;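 note: 0% = DMSO wells and 100% = Ran loaded with GDP instead of GTP; wells of about 40 µL received 100 nL stock; the first replicate is given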
The depositor's hits bear a star; i = inactive; u = inconclusive; x = not tested or not shown; & = joins results of further samples. This is a subset; the hit share may differ from the screen's.

| structure | Ecoli growth | FGF22 binding | Vif TR-FRET | HNF4A DNA FP | RanGTP-Impb inh | MLL AF4-AF9 inh | UCH37 DUB inh |
| --- | --- | --- | --- | --- | --- | --- | --- |
| CC1(C(=O)NS(=O)(=O)c2ccc(Cl)cc2)CCN1C(=O)c1ccco1 (stereo not drawn) | x | i | x | -0.6 | x | 0.9 | x |
| CCOC(=O)C1CCCN(C(=O)c2cc(CN3C(=O)c4ccccc4C3=O)ccc2OC)C1 (stereo not drawn) | 0.69 | i | x | -4.5 | u | -4.2 | 1.1 |
| COc1ccc(CNC(=O)CCNC(=O)C2CCN(S(=O)(=O)c3ccc(OC)cc3)CC2)cc1 | x | i | 3% | 2.4 | x | -6.1 | x |
| CSCc1nc2sc(C(=O)Nc3nc(C)cs3)c(C)c2c(=O)[nH]1 | 0.72 | i | -1% | 25 | 0.6 | -0.2 | -4.2 |
| Cc1[nH][nH]c(=O)c1N=Nc1ccccc1Cl | 0.64 | i | -6% | -2.7 | -5.3 | 0.7 | 6.5 |
| Cc1cccn2c(=O)c3cc(C(=O)NCC4CCCO4)c(=N)n(C4CCCC4)c3nc12 (stereo not drawn) | 0.7 | x | x | 1.8 | 187* | -2.6 | i |
| Cc1ccc2nc(/C(C#N)=C\c3ccc(Oc4ccc([N+](=O)[O-])cn4)cc3)[nH]c2c1 | 0.73 | i | 7% | 12 | x | 4.3 | -2.3 |
| O=[N+]([O-])c1ccc(C2=CSC3=NCCN23)cc1 | 0.72 | i | x | 0.6 | -1.0 | 2.3 | 5.9 |
| O=C(/C=C/c1ccc(OC(F)F)cc1)OCC(=O)N1CCc2ccccc21 | 0.69 | i | -2% | 1.8 | -4.0 | 0.5 | -1.7 |
| CC1CCN(CCCn2c(=S)[nH]c3ccc(N4CCOCC4)cc3c2=O)CC1 | 0.7 | x | 9% | 5.1 | -1.6 | x | -57 |
| Cc1ccc(S(=O)(=O)N2[C@@H](c3cccc(Cl)c3)C(C(=O)OC(C)(C)C)=CC[C@H]2c2ccc(C(C)C)cc2)cc1 | x | i | x | 3.8 | x | -1.7 | x |
| COC(=O)C(CO)NC(=O)C1CCCN1C(=O)CNC(=O)OCc1ccccc1 (stereo not drawn) | 0.64 | i | -7% | 1.3 | 3.2 | -0.5 | 2.6 |
| CC(NC(=O)Cc1ccsc1)c1ccc(Cl)cc1Cl (stereo not drawn) | 0.68 | i | x | 0.6 | 2.5 | -1.9 | -0.9 |
| Cc1ccc(NS(=O)(=O)c2ccc(N/N=C/c3ccccc3OCC(=O)O)c([N+](=O)[O-])c2)c(C)c1 | x | i | 11% | -2.9 | 4.3 | 4.9 | x |
| COc1ccccc1CN1CC(C(=O)N2CCN(c3ccc(F)cc3)CC2)CC1=O (stereo not drawn) | 0.7 | x | -1%&-3% | 1.8 | -0.9 | x | -3.5 |
| COc1ccc(OC)c(C2C(C(=O)c3ccc(C)o3)=C(O)C(=O)N2CCCN2CCOCC2)c1 (stereo not drawn) | 0.75 | x | x | -0.6 | x | x | 13 |
| Cc1ccccc1NC(=O)CCC(=O)OCC(=O)c1ccc(-c2ccccc2)cc1 | 0.7 | x | -13% | -1.6 | -1.8 | x | 1.5 |
| COc1ccc2c(C(=O)NCCCCO)c(-c3ccc(S(C)(=O)=O)cc3)sc2c1 | 0.67 | i | x | 1.8 | x | -1.1 | i |
| Cc1ccccc1OCc1nnc(SCC(=O)O)n1-c1ccccc1 | 0.63 | i | x | 0.6 | -1.0 | 3.0 | 1.8 |
| Cc1nnc(SCC(=O)N2c3ccccc3Sc3ccccc32)n1N | 0.71 | i | 5% | -0.7 | 1.6 | -32 | 0.8 |
| CCN(CC)C(=O)CSc1nnc(-c2c[nH]c3ccccc23)o1 | 0.65 | i | -3% | 1.2 | 5.6 | 2.6 | 0.2 |
| Cc1ccc(Cl)cc1N(CC(=O)N1CCOCC1)S(C)(=O)=O | 0.68 | i | x | 1.2 | 3.7 | -5.5 | 0.4 |
| Cc1ccc(C(=O)Nc2ccc3c(c2)OCCO3)c(C)c1 | 0.7 | i | -1% | 1.4 | -1.6 | 3.1 | -0.3 |
| CCN(CC)C(=O)CSC1=C(C#N)C(c2ccco2)C(C(=O)OCCOC)=C(C)N1 (stereo not drawn) | 0.69&0.7 | i | -4%&-8% | 6.4&0.2 | 0.4 | -2.6 | -2.7&0.8 |
| COc1ccc(NC(=O)C2C3C=CC4(O3)C2C(=O)N(CCN2CCCCC2C)C4C(=O)NC2CCCCC2)cc1 (stereo not drawn) | 0.7 | i | -3% | 2.8 | 1.4 | 3.1 | 0.5 |
| Cc1ccc(NC(=S)N2CCN(C3CCCCC3)CC2)cc1 | 0.7 | x | -3% | 0.0 | 0.7 | x | 2.2 |
| COc1cccc(CN2CCN(Cc3cccc(Oc4ccccc4)c3)CC2)c1OC | 0.64 | i | 5% | 2.9 | 0.6 | 3.3 | 3.2 |
| CC(C)Oc1ccc(S(=O)(=O)N2CCOCC2)cc1NC(=O)CC1CC2CCC1C2 (stereo not drawn) | x | i | 1% | 3.8 | x | -2.9 | x |
| COc1cccc(NC(=O)CSc2nnc3c(n2)[nH]c2ccc(C)cc23)c1 | 0.64 | i | x | 0.1 | 1.6 | -0.4 | 5.5 |
| COc1ccc(C)cc1S(=O)(=O)Nc1cc(Cl)ccc1Cl | 0.72 | x | -3% | -5.9 | -0.7 | x | 2.3 |
| NC(=S)NNC(=O)Nc1cccc(Cl)c1 | 0.7 | i | x | -3.1 | -2.4 | -0.6 | 1.7 |
| Cc1nonc1NC(=O)Nc1cccnc1 | 0.67 | x | u | -2.1 | 0.4 | x | -2.6 |
| Cc1cccc(CN2[C@H](COCc3ccccc3)C=CS2(=O)=O)c1 | x | i | x | 2.6 | x | -5.0 | x |
| O=c1[nH][nH]c(-c2ccccc2)c1C=Nc1ccc(OC(F)(F)F)cc1 | 0.73 | i | 2% | -2.1 | 1.5 | -8.8 | 0.7 |
| C#CCOCCOCCOCCNc1nc(N2CCN(C(=O)Cn3cc(CCO)nn3)CC2)nc(N2CCN(C(=O)[C@H](CCCCN)n3cc(CC(C)O)nn3)CC2)n1 (stereo partly drawn) | x | i | x | -1.7 | x | 5.0 | x |
| O=C(CN(CCc1ccccc1)C(=O)c1csnn1)NC1CCCC1 | 0.68 | i | -8% | 2.5 | -2.4 | -0.9 | 4.0 |
| Cc1nn(-c2cccc(Cl)c2)c2c1C(c1cccnc1)C(C#N)=C(N)O2 (stereo not drawn) | 0.7 | x | 14% | 0.1 | -4.3 | x | 7.0 |
| CC(=O)c1sc2nc(=O)c(C)nn2c1C | 0.68 | x | -5% | 1.2 | 0.3 | x | -1.4 |
| CN(C)c1cccc(NC(=O)c2ccco2)c1 | 0.67 | i | x | -3.1 | -60 | -3.1 | 1.6 |
| COC(=O)Cc1c(C(=O)OC)nnn1-c1ccc(OC)cc1 | 0.7 | i | -2% | -1.9 | -2.1 | 1.6 | 3.6 |
| ClC(Cl)(Cl)c1nc(N/N=C/c2ccncc2)c2ccccc2n1 | x | i | -1% | -3.6 | 0.4 | -0.8 | x |
| Cc1ccc2cccc(OC(=O)c3c(F)cccc3Cl)c2n1 | x | i | x | -1.4 | x | -6.9 | x |
| CC(Sc1nnc(-c2ccco2)n1C)C(=O)NC1CCCC1 (stereo not drawn) | 0.68 | i | -8% | 2.2 | x | -2.8 | 0.1 |
| Cc1cc(Cl)ccc1OCC(=O)Nc1nc(-c2cccs2)cs1 | 0.68 | x | 2% | 1.8 | 1.8 | x | 0.6 |
| O=c1[nH]c(=S)[nH]c2c1[C@H](CCc1cccc(Cl)c1)O[C@H](C1CC1)C2 | x | i | x | 4.8 | x | 2.7 | x |
| CCN(CC)c1ccc2nc3c4ccccc4c(=O)cc-3oc2c1 | 0.68 | i | x | x | -1.1 | 1.3 | 2.6 |
| CCOc1ccc(N2C(=O)c3cccnc3C2Nc2ccc(OC)cc2)cc1 (stereo not drawn) | 0.67 | x | 1% | 3.7 | 2.8 | x | 0.1 |
| COc1ccc(C(C#N)CC(=O)c2ccc3c(c2)OCO3)cc1OC (stereo not drawn) | x | i | -2% | 0.6 | x | 3.8 | x |
| COc1ccc(Cl)cc1NS(=O)(=O)c1cccc(C(=O)NCCCN2CCCC2=O)c1 | 0.72 | i | x | -0.8 | 0.9 | 0.9 | 6.7 |
| O=C(COC(=O)C12CC3CC(CC(Br)(C3)C1)C2)Nc1cccnc1Cl | 0.67 | x | -4% | -2.0 | -0.7 | -1.1 | 3.9 |

The results go on.
| structure | Ecoli growth | FGF22 binding | Vif TR-FRET | HNF4A DNA FP | RanGTP-Impb inh | MLL AF4-AF9 inh | UCH37 DUB inh |
| --- | --- | --- | --- | --- | --- | --- | --- |
| OCCN1CN=C(Nc2nc3ccccc3o2)NC1 | 0.69 | x | -3% | 1.6 | 0.8 | x | 3.0 |
| Cn1nnnc1SCC(=O)NC1CCCC1 | 0.7 | i | x | -1.6 | u | -3.3 | -0.7 |
| C=CCC1CCCC(=O)N2CC[C@H](O)C12 (stereo partly drawn) | x | x | 4% | 7.8 | -3.7 | x | 2.8 |
| CN1CC[C@@H]2C(=O)N3CCc4ccc(-c5ccc6c(c5)OCO6)cc4[C@@H]3C[C@@H]21 | x | i | x | 4.0 | x | 6.7 | x |
| O=C(N=C1SC2CS(=O)(=O)CC2N1Cc1ccccc1Cl)C1CC1 (stereo not drawn) | 0.67 | i | 1% | 2.7 | 2.6 | -5.7 | 1.4 |
| CCOC(=O)c1sc(NC(=O)CSc2nccn2C)nc1C | 0.69 | i | 1% | 1.6 | -14 | 0.8 | 3.2 |
| Cc1cccc(-n2c(C)nc3sccc3c2=O)c1 | 0.72 | x | 14% | 4.6 | -7.2 | x | 2.9 |
| Cc1cc(=O)oc(C)c1C(=O)N1CCCCC1 | 0.73 | x | 3% | -3.8 | 6.1 | x | 0.0 |
| CCOP(=O)(OCC)C(C#N)=C1SCN(c2ccccc2)CS1 | 0.69 | x | -11% | -0.2 | 7.9 | x | 5.6 |
| CCOC(=O)c1sc(=NC(=O)C2CC2)n(C)c1C | 0.69 | i | -3% | 4.1 | 4.4 | -3.0 | 0.3 |
| Cc1cc(C)c(S(=O)(=O)Cc2ccc(Cl)cc2)c(=O)[nH]1 | 0.64 | i | -5% | -0.3 | 2.0 | -1.9 | 0.5 |
| CCCC(=O)N1CCN(c2ccc([N+](=O)[O-])c(NC(C)c3ccccc3)c2)CC1 (stereo not drawn) | 0.69 | x | -4% | 1.7 | -0.1 | x | 7.1 |
| CCOc1ccccc1NC(=O)CSc1nc(=O)n(CCN2CCOCC2)c2c1CCCC2 | 0.68 | i | 7% | -0.6 | -0.7 | -0.2 | 0.2 |
| Cn1c(N)c(C(=O)COC(=O)c2ncc(Cl)c(Cl)c2Cl)c(=O)n(C)c1=O | 0.65 | i | 7% | 3.1 | 5.2 | -0.3 | -0.4 |
| CN(C)c1nc(Nc2ccc(F)cc2)nc(Oc2ccc(F)cc2)n1 | 0.67 | i | x | -1.3 | -2.6 | -0.2 | 3.8 |
| Cc1cccc(C(=O)N(Cc2nc3ccccc3c(=O)[nH]2)C2CCCC2)c1 | 0.67 | i | -3% | -0.8 | u | 1.6 | 4.0 |
| Cn1[nH]c(C(F)(F)F)cc1=O | 0.64 | i | x | 0.6 | 1.7 | -1.5 | 0.5 |

Bioassay records from PubChem.
